Screening results deposited in PubChem by National Center for Advancing Translational Sciences (NCATS).
D2 potentiator: Beta-Arrestin HTS for Positive Allosteric Modulators of the Human D2 Dopamine Receptor: Potentiators; DiscoveRx D2 beta-arrestin cells, luminescence, 90 min; 100% = 57 uM dopamine signal; D(2) dopamine receptor (Homo sapiens), P14416; potentiation, % (concentration not given with the values); actives 0.23% (n = 360,000); active = potentiation of 50% or more; inconclusive = 30% to 50%; inactive = 30% or less;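 further: compound concentration not given in the record; tested on top of an EC20 dose of dopamine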
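D2 cells co-treated with compound plus 50 nM dopamine (EC20) for 90 min at 37 deg C to detect potentiation. Beta-arrestin recruitment was read as enzyme-fragment luminescence after 1 h at ambient temperature. Full response was set by 57 uM dopamine.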
TRPML1 blocker: qHTS for Inhibitors of the Human Mucolipin Transient Receptor Potential 1 (TRPML1); Mucolipin-1 (Homo sapiens), Q9GZU1; TRPML1-inducible cells, Ca2+ dye fluorescence, FDSS; hits give low values; inhibition of EC80 agonist-evoked calcium signal; activity change, negative = inhibition, % (test concentration not listed); actives 0.02% (n = 390,000); AID 624415, 2012; in the data active means activity change below about -50%; inconclusive means about -30% to -50%; inactive means above about -30%;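 further: stimulus is agonist 54-4 at its EC80 concentration; on the % scale 0 is the no-effect control and ±100 the full control effect; compound concentration not given in the record; the text of the record puts the active cut at -80%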
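Calcium fluorescence in TRPML1-DL cells induced overnight with Tet: a 110 s read after compound pin addition, then a 110 s antagonist read after challenge with 54-4 at 4 uM final (EC80).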
Six1-Eya2 blk: qHTS Assay for Inhibitors of the Six1/Eya2 Interaction. Homeobox protein SIX1 (Homo sapiens) + Protein phosphatase EYA2 (Homo sapiens), …. AlphaScreen GST-Six1/His-Eya2 binding, biochemical; hits give low values; control for the full effect not named in the record. activity change, % (concentration not given with the values). actives 0.56% (n = 360,000); in the data active = activity change below about -65%; inconclusive = about -30% to -65%; inactive = above about -30%; further: on the % scale 0 is the no-effect control and ±100 the full control effect
Target sequence (O00167 whole entry, looked up): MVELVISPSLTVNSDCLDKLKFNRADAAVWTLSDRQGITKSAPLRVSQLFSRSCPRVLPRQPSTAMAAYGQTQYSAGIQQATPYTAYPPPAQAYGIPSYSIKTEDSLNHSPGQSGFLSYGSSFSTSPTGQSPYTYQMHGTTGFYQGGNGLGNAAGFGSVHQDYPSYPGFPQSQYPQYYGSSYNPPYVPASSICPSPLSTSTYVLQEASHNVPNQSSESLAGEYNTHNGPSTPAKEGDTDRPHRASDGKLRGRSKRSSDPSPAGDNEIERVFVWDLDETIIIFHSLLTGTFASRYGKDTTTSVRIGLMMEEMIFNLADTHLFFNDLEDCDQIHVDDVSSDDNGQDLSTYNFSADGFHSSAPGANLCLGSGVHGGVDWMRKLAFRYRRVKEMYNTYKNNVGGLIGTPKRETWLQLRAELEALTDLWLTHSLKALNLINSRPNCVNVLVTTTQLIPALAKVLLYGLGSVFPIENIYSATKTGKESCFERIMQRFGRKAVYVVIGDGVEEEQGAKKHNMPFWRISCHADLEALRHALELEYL
Target sequence (Q15475 whole entry, looked up): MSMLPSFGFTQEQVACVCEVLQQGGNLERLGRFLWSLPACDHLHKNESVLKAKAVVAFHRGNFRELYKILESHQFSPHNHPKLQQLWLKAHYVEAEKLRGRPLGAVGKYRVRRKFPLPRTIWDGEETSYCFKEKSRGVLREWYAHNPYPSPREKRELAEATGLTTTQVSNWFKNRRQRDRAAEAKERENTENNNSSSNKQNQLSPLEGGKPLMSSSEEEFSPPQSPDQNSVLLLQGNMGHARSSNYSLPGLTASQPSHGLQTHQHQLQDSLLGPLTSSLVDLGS
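GST-Six1 + His-Eya2 (5X stock: 250/500 nM); Tris pH 8.0, 300 mM NaCl, 0.05% BSA, 0.02% Tween 20; GSH donor/Ni acceptor beads; 1 h 37 °C dark; AlphaScreen readout.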
PINK1 modulator: A Quantitative High throughput Screen to Identify Chemical Modulators of PINK1 Expression; PINK1 immunofluorescence, high-content cytometry, 24 h; Potency, µM (series often up to 76.6 µM), without a hit: at the top dose activation (PINK1 increase), hits mostly activators; actives 0.2% (n = 410,000); AID 624263, 2012; active = well fitted activation curve with a large enough effect; inconclusive = small, poorly fitted or top-dose-only effect; inactive = flat fitted curve, though single readings scatter; cell line not stated here;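 further: potency means the concentration at half of the fitted maximal effect; % of control where 0% means no effect; nearly all actives have a fitted effect of over 65% in size; a mitochondrial uncoupler was the plate control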
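PINK1 protein, normally rapidly degraded, was detected by immunofluorescence after 24 hour compound treatment of a stable cell line. Titration data (5 concentrations) came from laser-scanning cytometry, with CCCP-treated wells as controls.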
TRPML1 agonist: qHTS for Agonists of the Human Mucolipin Transient Receptor Potential 1 (TRPML1); activation, % (concentration not given with the values); TRPML1-expressing cells, Ca2+ dye fluorescence, FDSS; host cell line not named in the record; reference of the full effect not given here; actives 0.12% (n = 410,000); Mucolipin-1 (Homo sapiens), Q9GZU1; AID 624414, 2012; in the data active = activation above about 50%; inconclusive = about 30% to 50%; inactive = below about 30%; further: 0% is about no effect; the text of the record puts the active cut at 80%
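Tetracycline-induced TRPML1-DL cells are seeded and incubated overnight before loading with a no-wash Ca2+ dye and quencher. Agonist activity is taken from the 110 s fluorescence read following compound pin-transfer on an FDSS, before EC80 54-4 challenge.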
D2 agonist: Beta-Arrestin HTS for Positive Allosteric Modulators of the Human D2 Dopamine Receptor: Agonists. activation, % (concentration not given with the values). D(2) dopamine receptor (Homo sapiens), P14416. actives 0.084% (n = 360,000). DiscoveRx PathHunter D2 beta-arrestin, luminescence, 90 min; 100% = 57 uM dopamine signal; in the data active = activation above about 40%; inconclusive = about 15% to 40%; inactive = below about 15%; further: compound concentration not given in the record; the text of the record calls up to 30% inactive
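DiscoveRx PathHunter D2 beta-arrestin cells (2,100/well) attached overnight, then compound-stimulated 90 min at 37 C in HBSS/10 mM HEPES/0.1% Tween-20 buffer; beta-galactosidase complementation read by luminescence after 1 h at ambient temperature. Dopamine 57 uM final (EC100) as control.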
An asterisk follows results filed as active; ? = inconclusive; / = not tested or not shown; & = joins results of further samples; [ ] = remark or other dose.

SMILES	D2 potentiator	TRPML1 blocker	Six1-Eya2 blk	PINK1 modulator	TRPML1 agonist	D2 agonist
COc1ccc(C(CNC(=O)Cn2c(=O)oc3ccccc32)N(C)C)cc1 (stereo unspecified)	-24	-2	-4	1.3%	-0.5	-4.3
COCCNC(=O)c1c[nH]c2ccc(S(=O)(=O)Nc3ccc(F)cc3F)cc2c1=O	-9	20&-6	6	-0.5%&5.8%	0.7&1.0	0.3
Cc1cccc(/C=N/NC(=O)Cn2nnnc2N)n1	-3	1	-18	0.9%	0.2	-3.4
Cc1nc(-c2ccc(S(=O)(=O)Nc3ccc(C#N)cc3)cc2)co1	/	-3	/	-5.1%	2.3	/
CC(=O)Nc1cccc(NC(=O)CCc2ccccc2)c1	-8	-20	3	-1.3%	0.1	-6.2
CC(=O)Nc1c(N)c2ccccc2oc1=O	-6	12	0	2.2%	0.6	0.5
C[C@@H]1CCCCO[C@H](CN(C)C(=O)Cc2ccccc2)[C@@H](C)CN([C@H](C)CO)C(=O)c2cc(NC(=O)Nc3ccccc3)ccc2O1	1	-25	23	3.0%	1.9	5.0
CC1C2C(C)N(C)C(=O)N(C)C2N(C)C(=O)N1C (stereo unspecified)	-7	-7	13	1.5%	2.5	0.7
COc1ccc(/C=N/NC(=O)c2cccc(C(=O)N/N=C/c3ccc(OC)cc3)n2)cc1	-2	4	4	5.4%	1.2	8.9
O=C1NC(c2ccccc2)=C(c2nc3ccccc3s2)C(c2ccccc2)N1 (stereo unspecified)	-11	5	-13	-2.5%[38.3 µM]	0.3	-3.4
CCCOC(=O)c1ccc(NC(=O)CSC2=Nc3ccccc3C3CC=NN23)cc1 (stereo unspecified)	-1	-1	-3	1.7%	1.0	-2.1
COCCn1c(SCC(=O)N2CCOCC2)nnc1-c1ccncc1	-5	12	4	0.2%	1.0	-2.4
CN1CCN(Cc2nc3ccccc3n2C)CC1CCO (stereo unspecified)	-3	2	-19	-0.3%	-0.2	-7.0
CC(=C/C(=O)O)/C=C/c1ccc(Cl)o1	2	0	-27	-0.9%	-0.6	-0.9
COc1ccc(N2CCN(C(=O)CCCn3nnnc3CN3CCOCC3)C(C)C2)cc1 (stereo unspecified)	-6	15	-6	-0.2%	0.2	-1.9

In a second layout: entries from further up
structure,D2 potentiator,TRPML1 blocker,Six1-Eya2 blk,PINK1 modulator,TRPML1 agonist,D2 agonist
CN1CCN(Cc2nc3ccccc3n2C)CC1CCO (stereo unspecified),-3,2,-19,-0.3%,-0.2,-7.0
CC(=C/C(=O)O)/C=C/c1ccc(Cl)o1,2,0,-27,-0.9%,-0.6,-0.9

More entries follow.
SMILES	D2 potentiator	TRPML1 blocker	Six1-Eya2 blk	PINK1 modulator	TRPML1 agonist	D2 agonist
COc1ccc(NC2=CC(c3ccccc3)N(c3ccc(OC)cc3)C2=O)cc1 (stereo unspecified)	-24	11	-18	5.3%	-0.8	-5.9
CN(c1cccc(NC(=O)c2ccc(Cl)c(S(=O)(=O)N3CCOCC3)c2)c1)S(C)(=O)=O	10	1	-4	-0.6%	1.5	8.9
Cc1cccc(NS(=O)(=O)c2c(C)n[nH]c2C)c1	-1	26	4	/	0.1	2.7
CC(=O)c1ccc(N2CCN(C(=O)COc3ccc4ccccc4c3)CC2)cc1	1	-11	1	0.4%	0.1	-0.3
CC(/C=C1\SC(=S)N(NC(=O)c2ccccc2C)C1=O)=C\c1ccccc1	6	-16	-14	?	-0.1	-0.3
O=C(CCSCCC(=O)NN=Cc1ccccc1)NN=Cc1ccccc1	-3	19	24	-0.9%	0.9	3.0
Cc1cccc(OCC(=O)Nc2ccc(N3CCN(C(=O)c4ccco4)CC3)cc2)c1	11	51	-9	5.3%[38.3 µM]	0.9	2.5
CN(C)c1ccc(NS(=O)(=O)c2ccc(-c3csnn3)cc2)cc1	6	-13	?	-1.6%	-0.3	4.9
CC1CCN(C(=O)C2(NC(=O)Nc3cccc(F)c3)CCCCC2)CC1	-4	-1	3	-1.7%	-1.0	0.0
CC(=O)Nc1cccc(-c2csc(C(O)c3ccccc3)n2)c1 (stereo unspecified)	-6	/	7	0.2%	0.1	-6.0
C=C1C(O)C[C@H]2C(=C)CCC3[C@H](OC(=O)[C@]3(O)CO)[C@@H]12 (stereo partly specified)	-6	13	3	0.1%	-0.2	-6.6
CCc1cccc(NC(=O)CSc2nnc(Cc3ccc(OC)cc3)c(=O)[nH]2)c1	-10	-1	-2	0.4%	-0.5	-3.4
COc1ccc(NC(=O)c2cc(-c3cc(C)ccc3O)n[nH]2)cc1Cl	7	17	0	1.6%[38.3 µM]	-0.6	-2.3
COc1ccc(S(=O)(=O)N2CCN(c3ccccn3)CC2)cc1OC	-4	2	-2	7.8%[38.3 µM]	-0.2	0.8
Nc1ccc2c(c1)C(=O)N(CC1CCCO1)C2=O (stereo unspecified)	-9	11	-1	0.3%	2.0	-3.0

Limited to D2 agonist, TRPML1 blocker and D2 potentiator (five entries from above):
Compound | D2 agonist | TRPML1 blocker | D2 potentiator
CN(c1cccc(NC(=O)c2ccc(Cl)c(S(=O)(=O)N3CCOCC3)c2)c1)S(C)(=O)=O | 8.9 | 1 | 10
CC1CCN(C(=O)C2(NC(=O)Nc3cccc(F)c3)CCCCC2)CC1 | 0.0 | -1 | -4
COc1ccc(NC2=CC(c3ccccc3)N(c3ccc(OC)cc3)C2=O)cc1 (stereo unspecified) | -5.9 | 11 | -24
CCc1cccc(NC(=O)CSc2nnc(Cc3ccc(OC)cc3)c(=O)[nH]2)c1 | -3.4 | -1 | -10
CN(C)c1ccc(NS(=O)(=O)c2ccc(-c3csnn3)cc2)cc1 | 4.9 | -13 | 6

More compounds
SMILES	D2 potentiator	TRPML1 blocker	Six1-Eya2 blk	PINK1 modulator	TRPML1 agonist	D2 agonist
Cc1ccc(NC(=O)COC(=O)c2ccc(S(=O)(=O)N3CCCC3)cc2)cc1	-17	25	7	-0.5%	-0.1	-5.0
CC(C)Cc1nc(N2CCC(C(N)=O)CC2)c2nnn(Cc3ccccc3)c2n1	-10	0	-5	13%[38.3 µM]	-0.1	-3.2
CCO[C@H]1OC(C(=O)NCc2ccccc2)=C[C@@H](C(C)(C)C)[C@@H]1CCCO	-7	-9	1	-0.5%	-0.8	-1.6
CN(C)S(=O)(=O)c1cccc(NC(=O)c2ccc3c(c2)OCCO3)c1	-10	-5	1	3.2%	-0.1	0.2
Cc1nc(SCc2ccc(Br)cc2)[nH]c(=O)c1C	3	4	-1	4.5%	0.4	-2.0
O=C(NC1CCN(C(=S)NCc2ccco2)CC1)c1cccc(F)c1	5	-12	-2	3.8%	-0.6	3.6
O=C(OCc1nc2ccccc2s1)c1cccs1	-9	8	6	/	0.3	0.6
Cc1ccc(C)n1-c1cccc(S(=O)(=O)N2CCOCC2)c1	-1	17	-4	1.4%	0.1	-0.1
Cc1scc(C(=O)NNC(=S)NCC2CCCO2)c1C (stereo unspecified)	-10	-2	6	1.6%	0.9	-5.3
Nc1cc(=O)nc(SCC(=O)Nc2ccccc2)n1CCc1ccccc1	/	37	/	-0.5%	3.9	/
COc1cc(NC(=O)CNC(=O)Cn2ccc3ccccc3c2=O)cc(OC)c1OC	-4	?	0	2.6%&0.0%	0.0&1.1	-3.6
N/C(=N\NC(=O)c1ccccc1Cl)c1cc2ccccc2oc1=O	-3	-1	-2	-0.3%	0.0	-3.9
CCOC(=O)Nc1c2ccccc2nc2ccccc12	-18	-1	-1	0.7%	-0.7	-3.5
CCn1c(COc2ccccc2OC)nc2ccccc21	-3	-2	8	2.7%	-1.3	1.0
COc1ccc(NC(=O)C2(c3ccc(NC(=O)c4ccc(OC)c(OC)c4)cc3)CCCC2)cc1	-2	-16	5	?	1.8	5.1

Random excerpt: 2 compounds from above, in no set order.
SMILES	D2 potentiator	TRPML1 blocker	Six1-Eya2 blk	PINK1 modulator	TRPML1 agonist	D2 agonist
CN(c1cccc(NC(=O)c2ccc(Cl)c(S(=O)(=O)N3CCOCC3)c2)c1)S(C)(=O)=O	10	1	-4	-0.6%	1.5	8.9
O=C(NC1CCN(C(=S)NCc2ccco2)CC1)c1cccc(F)c1	5	-12	-2	3.8%	-0.6	3.6

Other entries follow.
SMILES	D2 potentiator	TRPML1 blocker	Six1-Eya2 blk	PINK1 modulator	TRPML1 agonist	D2 agonist
CCOC(=O)c1sc(N)c(C(=O)OCC)c1C	-3	-3	-3	2.3%	1.1	2.8
CCOc1ccc(Cl)cc1/C=N/NC(=O)CNC(=O)c1ccccc1	-23	2	-5	8.0%	-0.6	-6.1
COc1ccc(/C=C/C(=O)OCC(=O)N2CCCCCC2)cc1OC	-8	-3	-6	-2.2%	-0.8	-2.6
COc1ccc(N2CCC(CNS(=O)(=O)c3cccc(C(F)(F)F)c3)C2)cc1 (stereo unspecified)	-7	25	-28	-0.9%	-0.6	1.5
CC(C)(C)c1ccc(C(=O)Nc2ncn[nH]2)cc1	-8	0	-5	1.0%	-1.0	-1.5
Cc1ccc(NC(=O)CSc2nccn2C2CCCC2)cc1Cl	/	24	/	1.1%	4.1	/
CNC(=S)NNc1nncc2ccccc12	-7	9	15	2.2%	-0.6	-1.4
COc1cc(NC(=O)c2ccco2)c(OC)cc1NC(=O)Nc1ccccc1Cl	7	10	-16	?	-0.1	6.0
COc1cc(Cl)c(C)cc1NC(=O)CSCc1nc(-c2ccc(OC)c(OC)c2)no1	/	14	/	-3.8%	1.8	/
Cc1cc(C)c(NC(=O)CS(=O)CC(=O)NCCCc2ccccc2)c(C)c1 (stereo unspecified)	-7	-3	9	/	-0.4	-0.6
CCc1cc(C)cc(OCCOc2ccccc2/C=N/NC(C)=O)c1	-6	62	0	8.5%	3.5	3.1
NC(=O)c1ccccc1NC(=O)CN1CCN(Cc2ccccc2)CC1	-20	23	-16	1.0%	0.0	-2.7
CCOc1ccc(N(CC(=O)NCC2CCCO2)C(=O)CCC(=O)Nc2nccs2)cc1 (stereo unspecified)	-21	1	6	1.5%	1.2	-1.3
CCCCCOc1ccc(NC(=O)Cn2c(-c3cncs3)nc3ccccc32)cc1	/	-12	/	2.4%	0.1	/
